# Ecoli growth: blocks Escherichia coli growth | OD600 absorbance (test concentration not listed) | 330,000 compounds, 0.21% hits | OD600, 23 h; active compounds read low;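 active means OD600 absorbance below the run mean of sample wells minus 3.6 SD, in any replicate, cut at about 0.56 in these data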;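 further: stock transfer was 300 nL into about 60 µL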
# UCH37 DUB inh: blocks the human deubiquitinase UCH37. 330,000 compounds, 0.33% hits. inhibition, % (test concentration not listed). purified proteasome/UCH37, Ub-AMC cleavage fluorescence. AID 588478;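 active means mean of two replicates above 20%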;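 further: 0% = compound-free wells with enzyme and 100% = wells lacking proteasome; stock transfer was 100 nL into about 20 µL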
# Target sequence (Q9Y5K5 whole entry, looked up): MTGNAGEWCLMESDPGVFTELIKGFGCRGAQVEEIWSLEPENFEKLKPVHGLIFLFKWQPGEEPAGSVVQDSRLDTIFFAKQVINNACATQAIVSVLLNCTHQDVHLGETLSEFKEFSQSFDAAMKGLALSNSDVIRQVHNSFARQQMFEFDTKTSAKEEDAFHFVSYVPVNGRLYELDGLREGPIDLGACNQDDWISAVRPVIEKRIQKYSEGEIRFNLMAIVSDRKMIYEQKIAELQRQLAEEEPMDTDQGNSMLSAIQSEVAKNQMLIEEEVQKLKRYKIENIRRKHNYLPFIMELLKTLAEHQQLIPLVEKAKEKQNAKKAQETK
#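 System: Proteasome-associated human UCH37 deubiquitinase; Input: 0.15 nM proteasome in added enzyme buffer; Also added: Ub-AMC substrate from 1 µM stock; Incubation: 30 min compound-proteasome preincubation then 25 min substrate reaction, room temperature; Detection: fluorescence, ex 355 nm, em 460 nm; Read-out: % inhibition of Ub-AMC cleavage fluorescence; Benchmarks: no-proteasome and no-compound wells.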
# An asterisk follows results filed as active. The list is partial. The share of hits here may be higher or lower than overall.
SMILES,Ecoli growth,UCH37 DUB inh
COc1ccc(Cl)cc1NC(=O)CC(C)=NNC(=O)CCc1ccccc1,0.65,-0.8
CCn1c2ccccc2c2cc(C=Nn3cnnc3)ccc21,0.64,-294
CN=c1scc(-c2ccco2)n1N=Cc1ccc(O)c(O)c1,0.65,1.9
CC(=NNC(N)=O)C1(C)CCCCC1,0.65,4.9
COc1ccc(C=NNC(=O)c2ccccc2F)cc1COc1ccc(F)cc1,0.67,-3.0
O=C(CCC(=O)Nc1ccc(Br)cc1)NN=Cc1ccc(O)cc1,0.65,2.0
O=C(O)c1ccccc1C=NNc1ccc(S(=O)(=O)N2CCCC2)cc1[N+](=O)[O-],0.69,14
O=[N+]([O-])c1ccccc1C=NNc1nccs1,0.67,6.1
O=C(Cc1ccccc1)NN=Cc1ccc(Cl)cc1Cl,0.75,4.5
CCOc1ccc(NC(=Nc2nc(C)cc(C)n2)NC(C)=O)cc1,0.72,5.1
COc1ccc(-c2nnc(SCC(=O)NN=Cc3ccccc3C(=O)O)n2-c2ccc(Cl)cc2)cc1,0.69,3.6
COc1cccc(C=NNC(=O)CNC(=O)c2ccc(S(=O)(=O)N3CCOCC3)cc2)c1OC,0.7,-2.2
CCCCCCC(=O)NN=C1CCCc2ccccc21,0.7,1.3
CCOc1cc(C=NNC(=O)CCn2nnc3ccccc32)ccc1O,0.69,7.1
O=C(Cn1cnc([N+](=O)[O-])n1)NN=Cc1ccccc1O,0.7,-1.7
CCn1cc(C=NNC(=O)COc2cccc3cccnc23)c2ccccc21,0.7,5.0
C(=NN=Cc1ccccn1)c1ccccn1,0.69,1.4
O=C(O)COc1ccccc1C=NNC(=O)Cc1csc(Nc2cccc(C(F)(F)F)c2)n1,0.67,5.1
O=C(O)c1ccc(N=NC(=NNc2ccc(C(=O)O)cc2)c2ccccc2)cc1,0.69,7.2
CCOc1ccccc1C(=O)NN=Cc1cccc2cccnc12,0.8,8.5
CC(C)c1c(C(=O)NN=Cc2ccccc2OCc2c(F)cccc2Cl)nnn1-c1nonc1N,0.66,2.5
Cc1nn(-c2ccccc2)c(Cl)c1C=NNc1ccc(S(=O)(=O)Nc2ccccc2C(=O)O)cc1[N+](=O)[O-],0.71,23*
Cc1nn(-c2ccccc2)c(C)c1-c1cc(C(=O)NN=Cc2cccnc2)[nH]n1,0.69,2.1
Nc1nnnn1N=Cc1cc([N+](=O)[O-])ccc1O,0.66,14
CC(=NNS(=O)(=O)c1ccc(C)cc1)c1ccc(Br)s1,0.72,3.3

# Going on with the list.
SMILES,Ecoli growth,UCH37 DUB inh
CCN(CC)CCn1c(N=Cc2ccc(OC)c(OC)c2)nc2ccccc21,0.66,5.1
NC(=S)NN=C1CC(n2nnn(-c3cccc(Cl)c3)c2=S)C2COC1O2 (stereo not drawn),0.72,3.4
CN(C)CCCN(CCCNC(=O)C=NO)Cc1ccccc1,0.67,6.4
COc1cccc(C=NNc2ccc([N+](=O)[O-])cn2)c1O,0.41*,3.1
COc1ccc(CNC(=S)NN=Cc2ccncc2)cc1,0.7,34*
CCOC(=O)C1=C(C)N=c2sc(=C3C(=O)Nc4ccccc43)c(=O)n2C1c1ccc2c(c1)OCO2 (stereo not drawn),0.68,9.0
COc1cc(C=NNc2nc3ccccc3s2)cc([N+](=O)[O-])c1O,0.65,22*
C(=Nn1cnnc1)c1cccc2ccccc12,0.7,-5.6
Cc1nc2ccccn2c1C(=O)NN=Cc1cc(C)n(-c2ccc(Cl)cc2)c1C,0.7,5.6
Cc1ccc(NN=C(C#N)C(N)=S)cc1C,0.65,7.3
C(=NNc1nc(N2CCCCCC2)nc(N2CCCCCC2)n1)c1ccccc1,0.71,3.7
Cc1ccc(C2=[N+]([O-])C3(CCCCCC3=NNC(N)=S)N(O)C2(C)C)o1 (stereo not drawn),0.77,2.8
Cn1cccc1CC(=O)NN=Cc1ccc(Cl)c([N+](=O)[O-])c1,0.64,2.9
Cc1cc(=O)[nH]c(NN=Cc2ccc(-c3ccc([N+](=O)[O-])cc3)o2)n1,0.71,3.1
CC(=O)C1=C(C)N=c2sc(=Cc3ccc4c(c3)OCO4)c(=O)n2C1c1ccc(N(C)C)cc1 (stereo not drawn),0.71,5.1
COc1ccc(Br)cc1C=NNC(=O)CNC(=O)C1COc2ccccc2O1 (stereo not drawn),0.63,-2.5
COc1cccc(C=NNC(=O)CCc2n[nH]c(=O)[nH]c2=O)c1O,0.7,-0.3
CCCOc1ccc(CCC(=O)NN=Cc2ccncc2)cc1,0.7,0.6
COc1ccc(C=NNC(=S)Nc2ccccc2)cc1COc1cccc(C)c1C,0.74,0.4
COC(=O)Cn1cc(C=NNC(=O)c2ccc(C#N)cc2F)c2ccccc21,0.65,12
O=C(O)Cn1cc(C=NNc2ccc([N+](=O)[O-])cn2)c2ccccc21,0.69,18
Cc1ccc(CN2CCN(N=Cc3sccc3C)CC2)c(C)c1,0.66,0.8
CCC(O)=NS(=O)(=O)c1ccc(N=NN(C)C)cc1,0.72,8.2
COc1cccc2c1OC(=NO)C(C(=O)Nc1cccc(C)c1C)C2 (stereo not drawn),0.68,6.3
Cc1cc(C(=O)NN=C/C=C/c2ccccc2[N+](=O)[O-])c(C)o1,0.7,7.9

# (continued)
SMILES,Ecoli growth,UCH37 DUB inh
CC(=NNC(=O)CNC(=O)c1cccs1)c1ccc(Cl)cc1,0.61,5.2
CCOC(=O)NN=Cc1cn(CCCOc2ccc(C)cc2)c2ccccc12,0.67,2.8
Cc1ccc(C(=O)NN=C/C=C/c2ccccc2)cc1,0.68,4.9
CCC(=NO)C(=O)c1ccc(Br)cc1,0.71,5.1
C/C(C=NNC(=O)c1ccc2nc(C)[nH]c2c1)=C\c1ccccc1,0.7,6.5
Cc1ccc(C=c2sc(=C(C#N)C(=O)N3CCCC3)n(Cc3ccco3)c2=O)s1,0.7,5.2
O=C(NN=Cc1coc2ccccc2c1=O)c1cc2ccccc2o1,0.67,-43
C/C=C/C=NNc1nc(-c2ccc([N+](=O)[O-])cc2)cs1,0.75,7.1
Cc1cccc(C(=O)ON=Cc2c(N3CCOCC3)n(C)c3ccccc23)c1,0.65,-2.9
O=S(=O)(N=Cc1c(O)ccc2ccccc12)c1ccccc1,0.63,5.7
Cc1ccn2c(C(=O)NN=Cc3ccccc3[N+](=O)[O-])c(C)nc2c1,0.68,14
Cc1cccc(C=NNc2cc(N3CCOCC3)nc(N3CCOCC3)n2)c1,0.67,0.7
O=C(Cn1cncn1)NN=Cc1ccccc1O,0.67,-29
COc1ccc(C=Nn2c(N)nc3ccccc32)cc1OC,0.75,5.0
O=C(NN=Cc1ccco1)/C(=C/c1cccc([N+](=O)[O-])c1)NC(=O)c1ccccc1,0.73,11
Cc1ccc(CN2CCN(N=Cc3ccc(C(F)(F)F)cc3)CC2)cc1,0.72,2.8
Cc1c(N=C2SCC(=O)N2N=Cc2ccccc2Cl)c(=O)n(-c2ccccc2)n1C,0.7,3.6
O=C1C(=O)N(CCN2CCOCC2)C(c2cccnc2)/C1=C(/O)c1ccccc1 (stereo not drawn),0.66,6.1
O=C(CNC(=O)c1ccccc1Br)NN=Cc1cccs1,0.67,2.5
Oc1ccc2ccccc2c1C=Nc1nccs1,0.69,3.4
CN(C)c1ccnc(-n2cccc2C=NOCc2cccc(F)c2)c1C#N,0.68,3.4
CC1Oc2ccccc2C=C1C=NNC(=O)c1cccnc1 (stereo not drawn),0.65,-42
O=C(NN=Cc1ccc(N2CCOCC2)o1)c1cccc([N+](=O)[O-])c1,0.68,11
Cc1cc(=O)[nH]c(NN=Cc2ccc(OC(=O)c3ccco3)cc2)n1,0.68,5.5
O=[N+]([O-])c1cc(C=NO)ccc1N1CCCC1,0.68,7.6

# Compound profiles, from the list above. Screens in order: Ecoli growth | UCH37 DUB inh
# O=C(Cc1ccccc1)NN=Cc1ccc(Cl)cc1Cl is listed with 0.75 | 4.5
# CCOc1cc(C=NNC(=O)CCn2nnc3ccccc32)ccc1O is listed with 0.69 | 7.1
# Cc1cccc(C(=O)ON=Cc2c(N3CCOCC3)n(C)c3ccccc23)c1 is listed with 0.65 | -2.9
# O=[N+]([O-])c1ccccc1C=NNc1nccs1 is listed with 0.67 | 6.1
# COc1cccc2c1OC(=NO)C(C(=O)Nc1cccc(C)c1C)C2 (stereo not drawn) is listed with 0.68 | 6.3

# (further entries)
SMILES,Ecoli growth,UCH37 DUB inh
COc1ccc(C=NNC(=O)c2ccc(N(C)S(=O)(=O)c3ccccc3)cc2)cc1OC,0.68,-2.1
O=C(COc1cccc2ccccc12)NN=C/C=C/c1ccccc1,0.71,0.1
COc1ccc(C=NNC(=O)Cn2cnc3ccccc3c2=O)cc1,0.67,3.0
CC(=NNC(=O)c1ccccc1OCCOc1ccccc1)c1ccccc1F,0.66,0.6
O=C1CCCC(=NNC(=O)c2ccc(CN3c4cccc5cccc(c45)S3(=O)=O)cc2)C1,0.67,-12
Cc1cc(C)nc(NN=Cc2ccncc2)n1,0.72,6.4
CCOc1ccccc1C=NNC(=O)c1nnn(-c2nonc2N)c1CN1CCCCCC1,0.72,-7.3
CCCCNC(=O)C(=O)NN=Cc1cccc(Br)c1,0.69,1.7
CC(=NNS(=O)(=O)c1ccccc1)c1ccc(NC(=O)C(F)(F)F)cc1,0.68,-0.3

# Part of the list above in a different format.
molecule | Ecoli growth | UCH37 DUB inh
O=C(COc1cccc2ccccc12)NN=C/C=C/c1ccccc1 | 0.71 | 0.1
COc1ccc(C=NNC(=O)Cn2cnc3ccccc3c2=O)cc1 | 0.67 | 3.0
CC(=NNC(=O)c1ccccc1OCCOc1ccccc1)c1ccccc1F | 0.66 | 0.6
O=C1CCCC(=NNC(=O)c2ccc(CN3c4cccc5cccc(c45)S3(=O)=O)cc2)C1 | 0.67 | -12
Cc1cc(C)nc(NN=Cc2ccncc2)n1 | 0.72 | 6.4

# Molecules from the list above with a cyano group (4):
SMILES,Ecoli growth,UCH37 DUB inh
Cc1ccc(NN=C(C#N)C(N)=S)cc1C,0.65,7.3
COC(=O)Cn1cc(C=NNC(=O)c2ccc(C#N)cc2F)c2ccccc21,0.65,12
Cc1ccc(C=c2sc(=C(C#N)C(=O)N3CCCC3)n(Cc3ccco3)c2=O)s1,0.7,5.2
CN(C)c1ccnc(-n2cccc2C=NOCc2cccc(F)c2)c1C#N,0.68,3.4

# As a working copy, some entries already given:
SMILES,Ecoli growth,UCH37 DUB inh
CCOc1ccccc1C=NNC(=O)c1nnn(-c2nonc2N)c1CN1CCCCCC1,0.72,-7.3
CCCCNC(=O)C(=O)NN=Cc1cccc(Br)c1,0.69,1.7
CC(=NNS(=O)(=O)c1ccccc1)c1ccc(NC(=O)C(F)(F)F)cc1,0.68,-0.3
